AF4-AF9 inh: MLL-AF4/AF9 protein interaction inhibition; inhibition, % at 10 µM; AlphaScreen, biotin-AF4 peptide binding to FLAG-AF9; P42568; 350,000 compounds, 0.47% hits;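 active = every replicate reaching a set inhibition limit, whatever the replicate mean, cut at about 25% in these data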;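 note: 0% = plate neutral control median and 100% = total signal loss; the record names both 10 and 1 µM as test concentration; the first replicate is given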
Target sequence (P42568 whole entry, looked up): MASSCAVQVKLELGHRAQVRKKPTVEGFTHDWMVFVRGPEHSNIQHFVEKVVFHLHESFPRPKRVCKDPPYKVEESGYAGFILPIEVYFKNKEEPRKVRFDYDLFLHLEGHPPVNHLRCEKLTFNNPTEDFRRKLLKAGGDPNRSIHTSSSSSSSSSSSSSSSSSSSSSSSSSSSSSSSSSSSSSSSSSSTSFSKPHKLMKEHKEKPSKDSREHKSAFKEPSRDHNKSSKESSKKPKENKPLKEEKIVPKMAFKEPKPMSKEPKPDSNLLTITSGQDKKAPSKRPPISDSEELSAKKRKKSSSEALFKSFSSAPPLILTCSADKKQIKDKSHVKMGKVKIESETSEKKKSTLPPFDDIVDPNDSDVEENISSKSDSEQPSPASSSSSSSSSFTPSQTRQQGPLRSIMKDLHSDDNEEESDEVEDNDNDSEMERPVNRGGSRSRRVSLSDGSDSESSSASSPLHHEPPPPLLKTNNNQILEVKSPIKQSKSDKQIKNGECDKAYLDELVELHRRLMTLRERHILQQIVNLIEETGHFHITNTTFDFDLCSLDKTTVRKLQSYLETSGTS
rRNA inh HTS: selective bacterial rRNA inhibition in E. coli | E. coli WT GFP vs humanized-ribosome RFP mutants, fluorescence, 24 h; stronger effect = lower value; DMSO median 0, no signal -100 | GFP signal change (wild-type ribosome), % (concentration not given with the values) | 350,000 compounds, 1.6% hits | AID 720706;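 active = significant combined selectivity score with lowered wild-type GFP, culture density cut under 30%, mutant RFP and density less affected; inactive = any of these conditions unmet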; note: one replicate is shown; some compounds called inactive have numbers as strong as hits
rRNA inh HTS OD600: recorded beside rRNA inh HTS, whose call it bears; OD600 change, %; measured here: OD600 growth;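 optical density of the mix in the first replicate; 0 = DMSO median and -100 = no signal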
rRNA inh HTS RFP: recorded beside rRNA inh HTS, whose call it bears; RFP signal change, %; measured here: RFP humanized mutant strains;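 first replicate; 0 = DMSO median and -100 = no signal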
Numbers without * were called inactive; & = joins results of further samples.

SMILES	AF4-AF9 inh	rRNA inh HTS	rRNA inh HTS OD600	rRNA inh HTS RFP
COc1ccc2c3c(n(C)c2c1)[C@H](CO)N(Cc1ccccc1F)CC31CCN(C(=O)C2CCOCC2)CC1	3.5	3	6	2.4
Cc1ccccc1-c1ccc(C2[C@@H]3CN(S(=O)(=O)c4ccccc4C)C[C@H]2N3)cc1 (some centres undefined)	-4.8&8.5	-41&-59	-46&-75	-3.5&-12
O=C(C1CCCCC1)N1C[C@@H]2N[C@H](C1)C2c1ccc(-c2ccccc2F)cc1 (some centres undefined)	-7.2&2.9	-56&-52	-80&-72	-9.2&-5.9
COc1ccc(S(=O)(=O)Nc2ccc3c(c2)C(=O)N([C@H](C)CO)C[C@H](C)[C@H](CN(C)S(=O)(=O)c2ccc(Cl)cc2)OCCCC[C@H](C)O3)cc1	1.2	1	9	-2.9
Cc1ccc(-c2ccccc2[C@@H]2[C@@H](CO)N(C(=O)NC3CCCC3)[C@H]2C#N)cc1	-14	1	-58	7.1
COc1cccc(S(=O)(=O)N2C[C@@H](O)COC[C@@H]3O[C@H](CC(=O)N4CCCCC4)CC[C@H]32)c1	-1.1	-2	0	-2.4
N#C[C@H]1[C@H](c2ccccc2-c2cccc(F)c2)[C@@H](CO)N1C(=O)NC1CCCCC1	-0.9	-16	-48	6.1
COc1ccc(NC(=O)N2C[C@@H]3N[C@H](C2)C3c2ccc(-c3cccc(OC)c3)cc2)cc1 (some centres undefined)	5.0&5.8	-10	6	0.7
COc1cccc(-c2ccc3c(c2)[C@H]2[C@H](CCN2C(=O)C2CC2)[C@@H](CO)N3)c1	14	4	3	-4.7
COc1ccccc1-c1ccc2c(c1)[C@@H]1[C@@H](CCN1C(=O)C1CCC1)[C@H](CO)N2	8.3	-6	-3	0.4
C[C@@H]1CCCCO[C@H](CN(C)Cc2ccc3c(c2)OCO3)[C@@H](C)CN([C@H](C)CO)C(=O)c2cc(NS(=O)(=O)c3ccc(Cl)cc3)ccc2O1	0.0	4	-14	3.6
COc1ccc(S(=O)(=O)N(C)C[C@H]2OCCCC[C@H](C)Oc3ccc(NS(=O)(=O)c4ccc(Cl)cc4)cc3C(=O)N([C@H](C)CO)C[C@@H]2C)cc1	8.1	-3	-2	0.7
CO[C@@H]1CN(C)C(=O)c2cc(NS(C)(=O)=O)ccc2OC[C@H](C)NC[C@@H]1C	-6.9	2	-2	-1.3
O=C(C[C@@H]1CC[C@@H](NC(=O)c2ccncc2)[C@@H](CO)O1)Nc1ccc(-c2ccccc2)cc1	-2.6	-4	-1	0.3
O=C(NC1CCCC1)N1CC(=O)N2[C@H](CO)[C@H](c3ccc(-c4ccncc4)cc3)[C@@H]2C1	-1.5	-1	15	-0.2
O=C(c1cccc(F)c1)N1CC[C@@H]2[C@H](CO)Nc3ccc(C#Cc4ccccc4)cc3[C@@H]21	-0.4	-6	8	2.0
COc1ccc(-c2ccc3n(c2=O)C[C@@H]2[C@@H](CO)[C@H](C(=O)Nc4ccccc4)N(C)[C@H]32)cc1	0.5	-5	0	8.9
O=C(c1ccccc1F)N1CC(=O)N2[C@@H](CO)[C@H](c3ccc(-c4cccnc4)cc3)[C@@H]2C1	-2.6	7	12	-4.2
COc1cccc(NC(=O)N2[C@@H]3CNC[C@H]2C3c2ccc(-c3ccccc3)cc2)c1 (some centres undefined)	5.1&9.5	1&-56	9&-82	-2.8&-17
CN(C)C(=O)c1cccc(-c2ccc([C@@H]3[C@@H](CO)N(C(=O)C4CCCC4)[C@H]3C#N)cc2)c1	-2.1	-2	2	3.9
COc1ccc2c3c([nH]c2c1)[C@H](CO)N(C(=O)CN1CCOCC1)CC31CCN(CC2CCCC2)CC1	4.7	4	17	0.4
O=C(C1CCC1)N1CC2(C1)[C@@H](c1ccccc1)[C@H](CO)N2C(=O)CC1CC1	-0.4	2	-5	-1.3
C[C@H](CO)N1C[C@H](C)[C@H](CN(C)Cc2ccc3c(c2)OCO3)OCCCC[C@H](C)Oc2ccc(NS(=O)(=O)c3ccc(F)cc3)cc2C1=O	6.2	6	-12	1.3
CN(C)C(=O)c1cccc(-c2ccc([C@@H]3[C@@H](C#N)N(C(=O)C4CCCC4)[C@H]3CO)cc2)c1	-1.8	-4	9	8.7
Fc1ccccc1CN1[C@@H]2CNC[C@H]1C2c1ccc(-c2ccccc2)cc1 (some centres undefined)	-3.7	3	9	-0.8
O=C(c1cnccn1)N1CC(=O)N2[C@@H](CO)[C@H](c3ccc(C4=CCCCC4)cc3)[C@@H]2C1	2.6	1	-1	-3.5
O=C(CC1CC1)N1[C@@H](CO)[C@H](c2ccccc2)C12CN(Cc1ccncc1)C2	-2.2	4	-6	-0.6
COC(=O)c1ccc(CN2CC(=O)N3[C@H](CO)[C@H](c4ccc(-c5ccccc5F)cc4)[C@@H]3C2)cc1	0.1	0	-6	1.7
COCC(=O)Nc1ccc2c(c1)OC[C@@H](C)N(Cc1ccccc1C(=O)O)C[C@@H](C)[C@H](OC)CN(C)C2=O	-0.4	4	8	-2.4
CC=Cc1ccc2n(c1=O)C[C@H]1[C@H](CO)[C@@H](C(=O)N3CCc4ccccc4C3)N(C(=O)COC)[C@@H]21 (mixture of isomers)	-2.6	2	3	-2.0
N#Cc1ccc(-c2ccc(C3[C@@H]4CN(C(=O)C5CCCC5)C[C@H]3N4)cc2)cc1 (some centres undefined)	3.4&5.0	-7&0	-16&5	-0.9&4.8
O=C(C1CCC1)N1CC2(C1)[C@@H](c1ccccc1)[C@@H](CO)N2Cc1ccc(Cl)cc1	3.6	-59	-78	-13
COCC(=O)N1CC(=O)N2[C@@H](CO)[C@@H](c3ccc(C#CC4CCCCC4)cc3)[C@@H]2C1	0.3	0	29	2.4
C[C@@H]1CCCCO[C@@H](CN(C)Cc2ccc3c(c2)OCO3)[C@@H](C)CN([C@@H](C)CO)C(=O)c2cc(NS(=O)(=O)c3ccc(F)cc3)ccc2O1	8.2	7	-19	6.2
CO[C@H]1CN(C)C(=O)c2cc(NC(=O)NC3CCCC3)ccc2OC[C@H](C)NC[C@H]1C	-6.4	4	6	1.9
N#Cc1cccc(-c2ccc(C3[C@@H]4CN(Cc5ccccc5F)C[C@H]3N4)cc2)c1 (some centres undefined)	10&6.8	-58&-61	-81&-75	-13&-14
CCCN1[C@@H]2c3cccc(=O)n3C[C@@H]2[C@@H](CO)[C@@H]1C(=O)N[C@@H](C)c1ccccc1	-0.5	14	2	5.9
COc1ccc(-c2ccccc2[C@H]2[C@@H](CO)N(C(=O)c3cccnc3)[C@H]2C#N)cc1	2.2	-3	-18	0.3
CN(C)C(=O)c1cccc(-c2ccc(C3[C@@H]4CN(S(=O)(=O)c5ccccc5)C[C@H]3N4)cc2)c1 (some centres undefined)	-5.0&-6.2	-1&7	-3&14	-2.0&0.6
COCC(=O)Nc1ccc2c(c1)[C@@H]1C[C@H](CC(=O)O)O[C@@H](CO)[C@@H]1O2	-1.9	0	-2	-0.2
O=C(C1CCC1)N1CC2(C1)[C@@H](c1ccccc1)[C@@H](CO)N2Cc1cncnc1	-2.9	2	11	-1.7
O=C(C1CCCC1)N1CC2(C1)[C@H](c1ccccc1)[C@H](CO)N2C(=O)NC1CCCC1	0.5	1	2	0.7
O=C(CC1CC1)N1CC(=O)N2[C@H](CO)[C@@H](c3ccc(C#Cc4cccc(F)c4)cc3)[C@@H]2C1	-4.3	-55	-79	-18
CCCC#Cc1ccc([C@H]2[C@@H](CO)N(C(C)=O)[C@@H]2CNC(=O)C2CC2)cc1	-2.2	-2	0	2.3
C/C=C/c1ccc([C@H]2[C@@H](CO)N(C(=O)CN(C)C)[C@@H]2CNC(=O)CC)cc1	0.1	2	1	-1.5
CN1C(=O)c2cc(NC(=O)Nc3cccc(Cl)c3)ccc2OC[C@@H]2O[C@@H](CC(=O)O)CC[C@H]21	-0.1	-2	0	1.8
CO[C@H]1CN(C)C(=O)c2ccc(NC(=O)Nc3cc(F)ccc3F)cc2OC[C@H](C)N(C(=O)c2cnccn2)C[C@@H]1C	-4.5	-5	-7	2.3
CC(C)NC(=O)N1Cc2cc(C(=O)NCC(F)(F)F)nc(-c3cccc(-c4cc5ccccc5o4)c3)c2[C@H]1CCO	0.9	6	7	-1.4
COc1ccc2c3c(n(C)c2c1)[C@H](CO)N(CC1CCOCC1)CC31CCN(C(=O)Nc2ccccc2)CC1	3.8	2	-5	-0.2
COc1ccc2c3c([nH]c2c1)[C@@H](CO)N(Cc1ccc(F)cc1)CC31CCN(C)CC1	8.1	3	-2	2.2
Cc1ccc(S(=O)(=O)Nc2ccc3c(c2)C(=O)N([C@H](C)CO)C[C@H](C)[C@H](CN(C)Cc2ccc(C(=O)O)cc2)OCCCC[C@H](C)O3)cc1	-5.1	6	5	-1.0
CCCC#Cc1ccc([C@@H]2[C@H](CO)N3C(=O)CN(C(=O)CN4CCOCC4)C[C@@H]23)cc1	-12	1	12	3.4
Cc1ccccc1S(=O)(=O)N1CC(=O)N2[C@H](C1)[C@H](c1ccc(C#CCN(C)C)cc1)[C@@H]2CO	5.2	-2	1	-3.3
C[C@@H]1CCCCO[C@@H](CN(C)Cc2ccccc2)[C@@H](C)CN([C@@H](C)CO)C(=O)c2cc(NS(=O)(=O)c3ccc(F)cc3)ccc2O1	7.9	4	-8	2.3
C[C@@H]1CCCCO[C@@H](CN(C)C(=O)c2ccccc2)[C@H](C)CN([C@H](C)CO)C(=O)c2cc(NS(=O)(=O)c3cn(C)cn3)ccc2O1	-2.1	2	0	-1.2
COc1ccc(-c2ccc3n(c2=O)C[C@@H]2[C@@H](CO)[C@H](C(=O)NCCN4CCCCC4)N(C)[C@H]32)cc1	1.1	-1	3	-2.2
COc1ccc(-c2ccccc2[C@H]2[C@@H](CO)N(C(=O)C3CCCC3)[C@H]2C#N)cc1	-1.1	-2	-7	0.6
CCCN1C[C@H](C)[C@@H](OC)CN(C)C(=O)c2cc(NC(=O)c3ccccc3)ccc2OC[C@@H]1C	1.8	-1	5	0.4
Cc1cccc(-c2ccc(C3[C@H]4CNC[C@@H]3N4S(=O)(=O)c3ccccc3F)cc2)c1 (some centres undefined)	-1.6&0.7	-1&-52	-47&-61	16&-4.7
COc1cccc(S(=O)(=O)N2[C@@H]3CNC[C@H]2C3c2ccc(-c3ccccc3OC)cc2)c1 (some centres undefined)	-1.2&3.2	7&-58	5&-77	0.2&-12
(listing goes on)
SMILES	AF4-AF9 inh	rRNA inh HTS	rRNA inh HTS OD600	rRNA inh HTS RFP
COCC(=O)N1CC(=O)N2[C@H](C1)[C@@H](c1ccc(C#CC(C)C)cc1)[C@@H]2CO	-0.8	2	3	-1.5
CCS(=O)(=O)N1CCCCN2[C@H](CO)[C@@H](c3ccc(-c4ccccc4F)cc3)[C@@H]2C1	-9.1	5	-23	3.0
Cc1ccccc1-c1ccc(C2[C@H]3CNC[C@@H]2N3S(=O)(=O)c2ccc(Cl)cc2)cc1 (some centres undefined)	-0.7&-5.6	-10&-53	-41&-79	3.5&-9.4
CC(C)C#Cc1ccc([C@@H]2[C@H]3CN(C(=O)c4ccc5c(c4)OCO5)CC(=O)N3[C@H]2CO)cc1	4.9	-1	-34	1.4
C/C=C/c1ccc(C2[C@@H]3CN(C(=O)c4ccc5c(c4)OCO5)C[C@H]2N3)cc1 (some centres undefined)	2.0&7.8	8&-28	7&-40	-0.1&-7.3
O=C(Nc1cccc(F)c1)N1CC(=O)N2[C@H](CO)[C@@H](c3ccc(-c4ccccc4F)cc3)[C@@H]2C1	1.3	-20	-59	17

Gathered by group, the entries above with a cyano group
SMILES	AF4-AF9 inh	rRNA inh HTS	rRNA inh HTS OD600	rRNA inh HTS RFP
Cc1ccc(-c2ccccc2[C@@H]2[C@@H](CO)N(C(=O)NC3CCCC3)[C@H]2C#N)cc1	-14	1	-58	7.1
N#C[C@H]1[C@H](c2ccccc2-c2cccc(F)c2)[C@@H](CO)N1C(=O)NC1CCCCC1	-0.9	-16	-48	6.1
CN(C)C(=O)c1cccc(-c2ccc([C@@H]3[C@@H](CO)N(C(=O)C4CCCC4)[C@H]3C#N)cc2)c1	-2.1	-2	2	3.9
CN(C)C(=O)c1cccc(-c2ccc([C@@H]3[C@@H](C#N)N(C(=O)C4CCCC4)[C@H]3CO)cc2)c1	-1.8	-4	9	8.7
N#Cc1ccc(-c2ccc(C3[C@@H]4CN(C(=O)C5CCCC5)C[C@H]3N4)cc2)cc1 (some centres undefined)	3.4&5.0	-7&0	-16&5	-0.9&4.8
N#Cc1cccc(-c2ccc(C3[C@@H]4CN(Cc5ccccc5F)C[C@H]3N4)cc2)c1 (some centres undefined)	10&6.8	-58&-61	-81&-75	-13&-14
COc1ccc(-c2ccccc2[C@H]2[C@@H](CO)N(C(=O)c3cccnc3)[C@H]2C#N)cc1	2.2	-3	-18	0.3
COc1ccc(-c2ccccc2[C@H]2[C@@H](CO)N(C(=O)C3CCCC3)[C@H]2C#N)cc1	-1.1	-2	-7	0.6

Source: PubChem (Broad Institute)

These rows are one share of the data; count on the stated rates, not on these rows.
